D2 ag: human D2 receptor agonism in beta-arrestin assay | DiscoveRx PathHunter D2 beta-arrestin, luminescence, 90 min; 100% = 57 uM dopamine signal | activation, % (test concentration not listed) | actives 0.084% (n = 360,000) | AID 624465 | P14416; in the data active = activation above about 40%; inconclusive = about 15% to 40%; inactive = below about 15%; also: compound concentration not given in the record; the text of the record calls up to 30% inactive
Target sequence (P14416 whole entry, looked up): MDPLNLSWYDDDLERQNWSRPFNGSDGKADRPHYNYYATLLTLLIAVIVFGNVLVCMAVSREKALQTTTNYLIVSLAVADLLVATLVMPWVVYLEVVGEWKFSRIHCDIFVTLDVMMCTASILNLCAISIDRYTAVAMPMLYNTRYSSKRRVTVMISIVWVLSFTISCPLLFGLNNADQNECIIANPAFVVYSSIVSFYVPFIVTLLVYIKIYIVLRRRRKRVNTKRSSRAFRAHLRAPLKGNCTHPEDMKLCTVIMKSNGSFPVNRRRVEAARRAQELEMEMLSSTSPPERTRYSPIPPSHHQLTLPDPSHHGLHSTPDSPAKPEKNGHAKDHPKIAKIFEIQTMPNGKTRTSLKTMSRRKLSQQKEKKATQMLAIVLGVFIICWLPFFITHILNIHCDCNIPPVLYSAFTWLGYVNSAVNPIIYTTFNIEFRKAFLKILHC
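Agonist mode: compounds alone added to overnight-plated D2 PathHunter cells for 90 min at 37 C, with 57 uM final dopamine (EC100) defining full response. Beta-arrestin recruitment detected by chemiluminescent reagent, read after 1 h at ambient temperature.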
TRPML1 agonist: human mucolipin-1 channel agonism; Q9GZU1; TRPML1-expressing cells, Ca2+ dye fluorescence, FDSS; host cell line not named in the record; reference of the full effect not given here; activation, % (no concentration beside the values); actives 0.12% (n = 410,000); in the data active = activation above about 50%; inconclusive = about 30% to 50%; inactive = below about 30%; also: 0% is about no effect; the text of the record puts the active cut at 80%
Target sequence (Q9GZU1 whole entry, looked up): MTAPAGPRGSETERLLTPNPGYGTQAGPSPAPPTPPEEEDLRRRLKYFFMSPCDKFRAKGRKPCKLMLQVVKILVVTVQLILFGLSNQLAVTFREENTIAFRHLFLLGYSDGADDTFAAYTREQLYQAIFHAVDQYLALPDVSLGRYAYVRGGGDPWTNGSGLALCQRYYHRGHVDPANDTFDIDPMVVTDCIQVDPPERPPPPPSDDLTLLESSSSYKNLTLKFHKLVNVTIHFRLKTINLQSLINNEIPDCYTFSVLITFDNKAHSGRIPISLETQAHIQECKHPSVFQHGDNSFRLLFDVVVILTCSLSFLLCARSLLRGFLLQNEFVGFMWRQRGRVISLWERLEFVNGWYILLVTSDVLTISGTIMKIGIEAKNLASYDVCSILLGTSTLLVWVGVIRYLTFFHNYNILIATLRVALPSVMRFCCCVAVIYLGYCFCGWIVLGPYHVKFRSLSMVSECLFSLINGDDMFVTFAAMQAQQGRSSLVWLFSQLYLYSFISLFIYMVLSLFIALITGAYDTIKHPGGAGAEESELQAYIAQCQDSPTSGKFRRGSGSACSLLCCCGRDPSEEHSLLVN
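Cells: TRPML1-DL, 1X Tet inducer, ~16 h at 37 degrees C/5% CO2. Dye: ABD Ca8 no-wash + quencher, 45-90 min RT. Read: 10 s baseline, compound add, 110 s agonist phase; 54-4 EC80 (4uM final), 110 s antagonist phase.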
TRPML1 blocker: blocks the human TRPML1 channel; Q9GZU1; TRPML1-inducible cells, Ca2+ dye fluorescence, FDSS; hits give low values; inhibition of EC80 agonist-evoked calcium signal; activity change, negative = inhibition, % (no concentration beside the values); actives 0.02% (n = 390,000); in the data active means activity change below about -50%; inconclusive means about -30% to -50%; inactive means above about -30%;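 also: stimulus is agonist 54-4 at its EC80 concentration; % is scaled to controls: 0 for no effect and ±100 for the full control effect; compound concentration not given in the record; the text of the record puts the active cut at -80%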
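Calcium fluorescence in TRPML1-DL cells induced overnight with Tet: a 110 s read after compound pin addition, then a 110 s antagonist read after challenge with 54-4 at 4 uM final (EC80).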
Six1-Eya2 inh: blocks human Six1 binding to Eya2; Q15475+O00167; actives 0.56% (n = 360,000); activity change, % (concentration not given with the values); AlphaScreen GST-Six1/His-Eya2 binding, biochemical; hits give low values; control for the full effect not named in the record; in the data active = activity change below about -65%; inconclusive = about -30% to -65%; inactive = above about -30%; also: % is scaled to controls: 0 for no effect and ±100 for the full control effect
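Six1/Eya2 binding was read as AlphaScreen signal after compounds were pinned into GST-Six1 plus His-tagged Eya2 (5X stock 250/500 nM) in pH 8.0 Tris/NaCl/TCEP buffer, beads added, then incubated 1 h, 37 C, dark.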
PINK1 expr mod: changes PINK1 expression; AID 624263; PINK1 immunofluorescence, high-content cytometry, 24 h; Potency, µM (top dose mostly 76.6 µM), without a hit: at the highest dose activation (PINK1 increase), most hits filed as activators; actives 0.2% (n = 410,000); active = well fitted activation curve with a large enough effect; inconclusive = small, poorly fitted or top-dose-only effect; inactive = flat fitted curve, though single readings scatter; cell line not stated here;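 also: potency is read from the fitted curve at half-maximal effect; % of control where 0% means no effect; nearly all actives have a fitted effect of over 65% in size; a mitochondrial uncoupler was the plate control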
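Decision-based qHTS: stable cells, 24 h exposure to five compound concentrations, CCCP as control. Fixed cells stained for PINK1 plus nuclear, mitochondrial and cell markers, cytometer read.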
CtBP-E1A inh: CtBP/E1A binding inhibition; AlphaScreen GST-E1A/His-CtBP binding, 1536-well; hits give low values; control for the full effect not named in the record; activity change, % (no concentration beside the values); actives 0.49% (n = 340,000); AID 651724; in the data active means activity change below about -65%; inconclusive means about -30% to -65%; inactive means above about -30%; also: % is scaled to controls: 0 for no effect and ±100 for the full control effect; compound concentration not given in the record
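Protein mix (5X: 125 nM each GST-E1A, His-CtBP) was incubated with pinned compound 2 h at 37 deg C in dark, in 50 mM Tris pH 8.0 buffer with 300 mM NaCl. Glutathione donor and nickel acceptor beads followed; AlphaScreen signal read after 1 h.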
Active calls of the source: *; ? = inconclusive; · = not tested or not shown; [ ] = dose if it differs, or a comment. Random draw from the library; overall some 1% were active at least once.

smiles,D2 ag,TRPML1 agonist,TRPML1 blocker,Six1-Eya2 inh,PINK1 expr mod,CtBP-E1A inh
O=C1COc2ccc(C(=O)COC(=O)c3ccc([N+](=O)[O-])cc3Cl)cc2N1,?,-0.3,-3,-11,-2.2%,14
CCCOc1ccc(/C=C/C(=O)N2CCN(C(=O)c3ccco3)CC2)cc1OC,1.2,-0.6,-4,-2,1.1%,1
Cc1nc2ccccc2c(=O)n1NC(=O)C1CCCCC1,0.3,-0.3,9,-1,·,-10
N#CC1=C(N)OC2=C(CC/C2=C\c2ccccc2)C1c1ccccc1 (stereo unspecified),0.5,55*,-8,0,?,8
CCc1nnc(NC(=O)CSc2nc(C)c3c(c2C#N)CCCC3)s1,-0.8,0.9,33,-13,20%[38.3 µM],-19
CCOc1ccccc1Oc1ccc(C(F)(F)F)cn1,-4.6,-0.7,-2,11,-0.3%,15
Oc1ccc(C=NNC(=S)Nc2ccccc2)nc1,-2.5,0.0,27,-97*,2.1%,-76*
Cc1ccc(NC(=O)CSC2=NN3CCCC(=O)N=C3S2)cc1Cl,-2.9,0.0,-10,18,-2.7%,-14
COCCCNC(=O)Cn1cc2c(n1)CCC(C)C2 (stereo unspecified),0.8,0.2,17,1,0.9%,2
NS(=O)(=O)c1cc(Cl)c(NC(=O)COC(=O)c2ccccn2)c(Cl)c1,11,-0.2,0,?,-0.1%,?

Continuation.
smiles,D2 ag,TRPML1 agonist,TRPML1 blocker,Six1-Eya2 inh,PINK1 expr mod,CtBP-E1A inh
C[C@@]12CCC=C[C@H]1[C@H](c1ccc(F)c(/C=C/c3ccccc3)c1)N(Cc1ccccc1)C2=O,-0.8,0.2,-3,-7,10%,0
Cc1sc2nc(CN3CCN(S(=O)(=O)c4cccc5nonc45)CC3)[nH]c(=O)c2c1C,-0.4,-0.2,-9,3,1.4%,3
CCCc1cc(=O)[nH]c(SCC(=O)NCC2COc3ccccc3O2)n1 (stereo unspecified),-3.2,-0.4,-3,4,0.3%,-12
COc1ccc(C)cc1NC(=O)CSc1ccc(-c2ccco2)nn1,-7.9,-0.6,24,-22,1.0%,-7
CN(Cc1ccc([N+](=O)[O-])cc1)c1ccccc1,-2.3,3.7,-6,-14,-1.2%,-20
COC(=O)c1c(NC(=O)COC(=O)[C@@H](NS(=O)(=O)c2ccccc2)C(C)C)sc2c1CCC2,-2.4,1.6,55,-9,1.6%,-25
CCOC(=O)c1csc(NC(=O)c2ccc(OCC)cc2)n1,6.0,0.4,4,-6,3.7%,20
Fc1ccc(-c2cc3nc4c(c(N5CCOCC5)n3n2)CCCC4)cc1,1.5,-0.5,2,12,·,8
COc1ccc(CNC(=O)c2cc(-c3ccc(Br)s3)nc3ccccc23)c(OC)c1,·,1.0,4,·,1.7%,·
COC(=O)c1cc(NC(=O)Cc2ccccc2[N+](=O)[O-])ccc1Cl,6.9,0.7,10,-9,3.4%,-16

Following part
smiles,D2 ag,TRPML1 agonist,TRPML1 blocker,Six1-Eya2 inh,PINK1 expr mod,CtBP-E1A inh
CCOC(=O)C1=C(C)NC(C)=C(C(=O)OCC)C1c1nc2ccccc2[nH]1,-5.4,-0.5,-12,8,?,1
CCn1cc(C(=O)NN)c(=O)c2cc(F)c(N3CCOCC3)cc21,1.2,-1.1,-13,2,1.2%,-4
O=C(Nc1ccc(S(=O)(=O)Nc2ncccn2)cc1)c1ccc(Cl)c([N+](=O)[O-])c1,2.1,0.1,1,-5,0.2%,-4
COc1ccc([C@H]2CC(=O)C=C(c3ccc(Cl)c(F)c3)C2)cc1,-0.2,0.0,-15,4,0.3%,-2
COc1ccc(-c2cc(C(=O)O)c3ccccc3n2)c(OC)c1,-1.5,0.2,-30,7,0.6%,0
CC1CCC(NCC(=O)Nc2cccc(S(N)(=O)=O)c2)CC1 (stereo unspecified),-2.1,-0.1,-19,2,-0.7%,-5
CC(=O)c1ccc(S(=O)(=O)NCC(=O)N2CCN(C/C=C/c3ccccc3)CC2)cc1,4.5,0.1,1,1,-1.1%,-19
CC(=O)c1cc(C#N)c(SCCC(C)C)nc1C,-1.7,1.2,-18,39,18%[38.3 µM],42
Cc1ccc(NC(=O)CCCN2C(=S)NC(C)(C)CC2C)cc1 (stereo unspecified),-1.7,-0.7,1,-13,-0.2%,-17
O=C(CCC(=O)Nc1ccccc1Cl)N/N=C1\CCCc2ccccc21,-0.8,-0.7,-14,11,18%,10

Additional compounds follow.
smiles,D2 ag,TRPML1 agonist,TRPML1 blocker,Six1-Eya2 inh,PINK1 expr mod,CtBP-E1A inh
CCCOc1ccccc1C1CC(=O)NC(C)=C1C(=O)OCC(C)C (stereo unspecified),-3.2,1.7,7,3,7.7%,0
COc1cccc(OC)c1CNC(=O)C1CCC(=O)N(CC2CCCCC2)C1 (stereo unspecified),-2.9,-0.6,5,-1,0.5%,5
CCOc1ccc(-n2c(N)c(C(=O)NCc3cccnc3)sc2=S)cc1,-1.4,-1.2,3,-3,7.5%,0
CC(=O)Oc1ccc(-c2cc3c(OC(C)=O)cc(OC(C)=O)cc3oc2=O)cc1,6.3,·,·,2,2.8%,-23
O=C(c1ccc2c(c1)OCO2)N1CCN(CCN2C(=O)c3cccc4cccc(c34)C2=O)CC1,2.8,1.1,9,6,-1.3%,8
CC(C)CC(N)c1csc(NC(=O)Nc2ccccc2C(C)(C)C)n1 (stereo unspecified),2.5,0.7,·,1,0.2%,-16
CCc1ccc(NC(=O)N(CCN2CCOCC2)Cc2ccc3c(c2)CCCN3CC)cc1,0.1,0.3,11,?,14%[38.3 µM],?
OCCC1CN(Cc2nc3ccc(F)cc3[nH]2)CCN1C1CCCC1 (stereo unspecified),-0.4,0.3,-7,0,-0.2%,3
O=C(Cc1cccc2ccccc12)Nc1nnc(-c2cccc([N+](=O)[O-])c2)s1,1.2,1.0,-1,0,1.7%,-20
C/C(N)=C(/C#N)C(=O)CSc1cc(Cl)ccc1Cl,-1.4,-0.3,-10,2,17%,6

(cont.)
smiles,D2 ag,TRPML1 agonist,TRPML1 blocker,Six1-Eya2 inh,PINK1 expr mod,CtBP-E1A inh
O=C(Cn1nnc2ccccc2c1=O)Nc1cccc(S(=O)(=O)N2CCOCC2)c1,0.0,0.6,19,-2,1.0%,·
CC(C)Oc1ccccc1/C=N/n1nnnc1N,-2.0,-0.5,4,5,0.8%,·
CCCCOc1ccc(C2C(C(=O)c3ccc(C)o3)=C(O)C(=O)N2CC2CCCO2)cc1 (stereo unspecified),-5.2,-0.2,9,-3,-2.6%,-23
O=C(O)c1cc([N+](=O)[O-])ccc1NCc1ccccc1,-5.0,0.1,-12,-3,-0.8%,-20
CCCNC(=O)c1c(Cl)cnn1-c1ccc(C)cc1,-3.2,-0.5,-12,3,3.0%,13
COc1ccc(C2N(c3ccc(Cl)cc3)N=C(C(C)=O)N(C)N2C(C)=O)cc1 (stereo unspecified),-2.0,0.0,2,-20,3.4%,-12
O=C(O)CCCCCNC(=O)c1ccc(C(=O)NCCCCCC(=O)O)cc1,-0.3,0.7,9,7,-0.1%,·
Cc1ccc(NC(=O)Cc2nnc(SCC(=O)NC3CCCC3)n2C)cc1C,-4.7,1.8,16,5,0.4%,3
COc1ccc(S(=O)(=O)Nc2ccc3c(c2)C(=O)N([C@H](C)CO)C[C@H](C)[C@@H](CN(C)C(=O)Nc2ccc(C(F)(F)F)cc2)OCCCC[C@H](C)O3)cc1,3.0,·,·,-4,0.7%,2
CC(C)CC1NC(C(=O)O)Cc2c1[nH]c1ccccc21 (stereo unspecified),-3.5,-0.2,-11,0,-0.8%,0

Next part:
smiles,D2 ag,TRPML1 agonist,TRPML1 blocker,Six1-Eya2 inh,PINK1 expr mod,CtBP-E1A inh
Cc1cc(-c2ccccc2C(=O)NCc2ccccc2)on1,-2.1,-0.2,-7,3,-1.7%,19
COc1cc(-c2ccno2)ccc1S(=O)(=O)N1CCN(c2ccccc2F)CC1,·,2.5,52,·,-0.7%,·
COc1ccc(F)cc1-c1cc(NC=O)c2ncc(-c3cccc(C(=O)N(C)C)c3)n2c1,-6.1,-0.3,·,?,4.9%,?
CC(=O)Nc1ccc(S(=O)(=O)N(C)CC(=O)OCC(=O)N(CC(C)C)C2CCS(=O)(=O)C2)cc1 (stereo unspecified),-0.2,0.0,8,2,3.0%,8
CCn1cc(C(=O)O)c(=O)c2cc(F)c(N3CCN(C(=S)NC(=O)c4ccccc4Cl)CC3)cc21,-5.8,·,·,-2,1.9%,4
Cc1ccc(C)c(C(=O)CC2(O)C(=O)N(C)c3ccccc32)c1 (stereo unspecified),-1.5,0.2,29,-2,·,11
CN(C)c1c(N)c(=O)oc2ccccc12,2.3,2.5,9,-4,-1.7%,·
Cc1ccc(C(=O)Nc2ccsc2C(=O)O)cc1,2.6,1.3,-5,-24,1.9%,·
CCCCCN(C(=O)NC(=O)NCCCC)S(C)(=O)=O,-0.4,0.0,-1,2,3.3%[38.3 µM],10
O=C(CCl)N(c1ccccc1)c1ccccc1,-4.0,0.0,9,-3,-1.7%,0

An excerpt of these results, as labelled records:
> Cc1ccc(C)c(C(=O)CC2(O)C(=O)N(C)c3ccccc32)c1 (stereo unspecified)
  D2 ag: -1.5	TRPML1 agonist: 0.2	TRPML1 blocker: 29	Six1-Eya2 inh: -2	PINK1 expr mod: ·	CtBP-E1A inh: 11
> CN(C)c1c(N)c(=O)oc2ccccc12
  D2 ag: 2.3	TRPML1 agonist: 2.5	TRPML1 blocker: 9	Six1-Eya2 inh: -4	PINK1 expr mod: -1.7%	CtBP-E1A inh: ·
> Cc1ccc(C(=O)Nc2ccsc2C(=O)O)cc1
  D2 ag: 2.6	TRPML1 agonist: 1.3	TRPML1 blocker: -5	Six1-Eya2 inh: -24	PINK1 expr mod: 1.9%	CtBP-E1A inh: ·

(cont.)
smiles,D2 ag,TRPML1 agonist,TRPML1 blocker,Six1-Eya2 inh,PINK1 expr mod,CtBP-E1A inh
O=C(CSc1n[nH]c(=O)[nH]c1=O)c1ccc(Cl)cc1Cl,-0.5,0.0,29,5,-2.8%,-3
CNS(=O)(=O)c1ccc(N=Cc2c(C)[nH]n(-c3ccc(C)cc3C)c2=O)cc1,-2.9,0.9,24,-2,-0.9%,-2
Cc1cc(C)c(NC(=O)CO/N=C2\CCCc3nonc32)c(C)c1,-3.9,-0.1,-7,-14,8.3%,-3
CCCCCCCNC(=O)C1(CC2CC(c3cccc(Br)c3)=NO2)CCN(C(=O)CCCCCBr)CC1 (stereo unspecified),-3.6,0.3,0,-1,-0.3%,-3
CC(=O)c1ccc(OCc2ccc(Oc3c(Cl)cccc3[N+](=O)[O-])cc2)cc1,-2.2,0.7,-18,7,0.1%,1
CCN(C(=O)COC(=O)c1cnc(C)cn1)C1CCCCC1,0.3,0.1,24,5,-2.0%,1
Cc1ccc2[nH]c(=O)c(CN(Cc3cccnc3)Cc3nnnn3CC3CCCO3)cc2c1 (stereo unspecified),3.5,0.4,-8,1,-0.2%,2
CN(C)S(=O)(=O)c1cccc(-c2csc(=Nc3ccccc3)n2CCCN2CCOCC2)c1,0.6,1.2,76,2,-1.4%,-18
COc1ccc(CNCC(C)NCc2ccc(OC)c(OC)c2)cc1OC (stereo unspecified),-0.6,0.7,-6,-3,-0.5%,-24
Cc1ccc(NC(=O)COC(=O)C2CC2)cc1S(=O)(=O)N1CCOCC1,0.7,0.8,-9,0,0.9%,5
